Screening data (PubChem BioAssay)
MT1-MMP act inh – blockers of MT1-MMP proenzyme processing, primary screen, HT1080 RFP-PRO-GFP cells, GFP/RFP fluorescence | AID 651647, 2012 | GFP/RFP ratio fluorescence, overnight; percent of plate control window, DMSO zero | 360,000 compounds, 0.061% hits | Matrix metalloproteinase-14 (Homo sapiens), P50281 | GFP/RFP ratio change, % at 20 µM;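 active = GFP/RFP ratio change of at least 30% with cell ATP level not reduced by more than half and red fluorescence within 50% of control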; also: strong numbers were not always called active
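system = RFP-PRO-GFP reporter HT1080 cells | dosing = 20 µM single dose, 1% DMSO | timing = overnight cell settling, then overnight compound exposure, 37 °C, 5% CO2 | read-out basis = GFP/RFP fluorescence ratio | controls = DMSO and RFP-L50D-GFP cell wells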
UUG fidelity – modulators of yeast start codon fidelity, primary screen, whole organism, S. cerevisiae, single point, plate reader. activity score, % at 18.7 µM. S. cerevisiae UUG-firefly luciferase reporter, luminescence/redox ratio. AID 602363, 2012. 350,000 compounds, 0.13% hits;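 active = replicate mean at a twofold rise or more, about +100% in these data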;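 also: firefly luciferase made from a UUG start codon reports start codon fidelity; reporter light over untreated wells divided by growth signal over untreated wells; some hits fall short of that in this replicate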
eIF4H inh – human eIF4H binding inhibitors, primary screen, translation initiation inhibitor project, biochemical, uHTS, fluorescence polarization; Eukaryotic translation initiation factor 4H (Homo sapiens), Q15056; eIF4H fluorescence polarization binding assay; inhibition, % at 35 µM; 290,000 compounds, 0.94% hits; AID 2012, 2009;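 active = 50% or more with normal probe brightness, or confirmed in later tests; inconclusive = above 50% with abnormal brightness, or retests that disagree; inactive = below 50% or failed in later tests; about a fifth of its hits are not listed in these tables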;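 also: calls also rest on retests at 20 µM and on dose response follow-up; 0% = protein and probe with vehicle and 100% = probe without protein; strong numbers were not always called active; many hits fall short of the cut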
Rce1 inh – yeast Rce1p protease inhibitors, primary screen, biochemical, fluorescence, cell-free homogeneous. CAAX prenyl protease 2 (Saccharomyces cerevisiae (strain ATCC 204508 / S288c)), Q03530. yeast membranes, quenched prenylated peptide cleavage fluorescence. calls only. 290,000 compounds, 0.27% hits. AID 2563, 2010;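 active = fall in fluorescence gain of 50% or more versus controls, with final raw signal at or below 3038400; inconclusive = same 50% fall but final raw signal above 3038400; inactive = fall in fluorescence gain under 50%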;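 also: plate controls were neutral control wells for no effect and wells lacking membranes for full effect; tested at 10 µM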
Target sequence (Q03530 whole entry, looked up): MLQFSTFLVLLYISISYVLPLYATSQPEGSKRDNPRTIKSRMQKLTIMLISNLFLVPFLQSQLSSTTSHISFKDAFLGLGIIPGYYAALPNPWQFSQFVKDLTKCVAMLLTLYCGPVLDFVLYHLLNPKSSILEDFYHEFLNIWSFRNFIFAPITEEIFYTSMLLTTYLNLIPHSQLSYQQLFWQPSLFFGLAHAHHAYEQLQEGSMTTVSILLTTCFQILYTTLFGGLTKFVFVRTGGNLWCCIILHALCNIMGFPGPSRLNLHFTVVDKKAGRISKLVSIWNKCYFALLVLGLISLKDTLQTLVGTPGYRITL
CSC inhib – cancer stem cell viability inhibitors, primary screen, luminescence | cancer stem cell-like cells viability | inhibition, % at 7.5 µM | 300,000 compounds, 1.1% hits;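 active = mean at 75% or more and at least half the replicates too; inconclusive = mean and replicates disagree; tested in HMLE shEcad cells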;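 also: 0% = median of negative and 100% = median of positive control wells; the first replicate is given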
PABP polyA inh – PABP poly(A) RNA binding inhibitors, primary screen, biochemical, fluorescence polarization, uHTS; Polyadenylate-binding protein 1 (Homo sapiens), P11940; inhibition, % at 35 µM; 290,000 compounds, 1% hits;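 active = 50% or more with normal probe brightness, or confirmed in later tests; inconclusive = above 50% with abnormal brightness, or retests that disagree; inactive = below 50% or failed in later tests; about a fifth of its hits are not listed in these tables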;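 also: calls also rest on retests at 20 µM and on dose response follow-up; controls were probe without protein and protein plus probe with vehicle; some compounds called inactive have numbers as strong as hits; many hits fall short of the cut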
Target sequence (P11940 whole entry, looked up): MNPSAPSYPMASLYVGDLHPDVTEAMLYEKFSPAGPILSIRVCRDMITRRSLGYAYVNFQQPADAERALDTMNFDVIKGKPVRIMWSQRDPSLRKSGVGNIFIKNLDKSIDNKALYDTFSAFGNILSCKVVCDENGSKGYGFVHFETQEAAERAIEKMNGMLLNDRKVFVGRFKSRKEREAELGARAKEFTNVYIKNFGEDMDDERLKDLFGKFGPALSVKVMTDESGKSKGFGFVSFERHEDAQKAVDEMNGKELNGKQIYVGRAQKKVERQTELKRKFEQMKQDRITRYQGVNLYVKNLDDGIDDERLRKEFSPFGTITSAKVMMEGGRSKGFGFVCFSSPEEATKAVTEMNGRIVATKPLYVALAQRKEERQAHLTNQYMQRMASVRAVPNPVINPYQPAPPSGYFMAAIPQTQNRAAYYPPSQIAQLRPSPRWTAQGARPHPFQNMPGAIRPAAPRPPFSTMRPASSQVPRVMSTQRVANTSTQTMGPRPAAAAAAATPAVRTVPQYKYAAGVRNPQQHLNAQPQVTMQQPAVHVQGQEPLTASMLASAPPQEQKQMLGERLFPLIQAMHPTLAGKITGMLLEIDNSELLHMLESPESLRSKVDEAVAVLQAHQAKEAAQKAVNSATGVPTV
Env fusion inh – inhibitors of HIV-1 Env-driven cell-cell fusion, primary screen, HeLa-JRFL effector, CEM21 target cells, luciferase | inhibition, % at 12.3 µM | 360,000 compounds, 1.1% hits | AID 651610, 2012;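 active = mean replicate inhibition score of at least 50 and every replicate individually at or above 50; inconclusive = only one of the two criteria met; inactive = mean below 50 and not all replicates reaching 50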;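 also: 0% = plate neutral controls and 100% = maraviroc near 300 nM; one replicate is shown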
eIF4H inh retest – also measured in eIF4H inh; calls as there; inhibition, %; compound at 20 µM; confirmation average;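 mean of two retest wells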
PABP polyA inh retest – recorded beside PABP polyA inh, whose call it bears; inhibition, %; compound at 20 µM; confirmation repeats;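 mean of two retest wells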
MT1-MMP act inh RFP – also measured in MT1-MMP act inh; calls as there; RFP signal change, %; measured here: RFP expression control read;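 0 = vehicle wells; hits needed this value within 50% of zero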
* marks the source's active call; other numbers are inactive results; i = inactive; u = inconclusive; x = no result given; & = joins results of further samples. An unsorted share of the library. Share with any hit: about 2.9%.

SMILES	MT1-MMP act inh	MT1-MMP act inh RFP	UUG fidelity	eIF4H inh	Rce1 inh	CSC inhib	PABP polyA inh	Env fusion inh	others
Cc1ccccc1-n1nnnc1SC(C)C(=O)NC1CCCc2ccccc21 (stereo unspecified)	-3	-3	5	14	i	-4	-4	34
O=C(CN1CCN(Cc2ccccc2)CC1)Nc1ccc([N+](=O)[O-])cc1C(=O)Nc1ccccc1F	-5	-12	x	-14	i	10	3	0
O=[N+]([O-])c1cccc(COc2cccc(CN3CCCCC3)c2)c1	0	-1	-2	x	x	x	x	21
Cc1ccc(S(=O)(=O)N(C)c2ccc(C(=O)Nc3cccnc3)cc2)cc1	-2	-9	4	-7	i	-8	-4	-8
Cc1ccc(S(=O)(=O)N(C)Cc2ccc(C(=O)N/N=C3\CC(=O)CC(C)(C)C3)cc2)cc1	0	2	x	3	i	0	-4	-39
CCOC(=O)CSc1nnc2c3ccccc3n(CC)c2n1	1	0	-20	-7	i	-7	4	16
COc1ccc(CCNC2CC(C)N(C)CC2C)cc1OC (stereo unspecified)	4	2	-12	-1	i	x	13	4
NS(=O)(=O)c1ccc(NC(=O)CN2CCN(S(=O)(=O)/C=C/c3ccccc3)CC2)cc1	-1	1	10	20	i	-3	6	4
O=C(Nc1ccc(Cl)cc1C(=O)c1ccccn1)c1ccccc1	3	1	-17	x	x	x	x	-29
COCCNC(=O)c1ccc2c(=O)n(Cc3ccco3)c(SCC(=O)NC3CCCCC3)nc2c1	2	0	-16	3	i	-12	-2	-6
Cc1ccc(C(=O)/C=C/c2ccc(-c3ccccc3[N+](=O)[O-])o2)cc1	58	60	x	19	i	16	33	4
C=CCn1c(SC(C)C(=O)NC2(C#N)CCCCC2)nnc1-c1ccc(OC)cc1 (stereo unspecified)	3	2	-3	-8	i	0	-1	19
Cc1nc2c(c(=O)n1CCC1=CCCCC1)c1nc3ccccc3nc1n2/N=C/c1ccco1	-5	3	-16	68*	i	4	68*	x
CCc1nc(N)c(C#N)c(-c2ccc(O)c(OC)c2)c1C	-3	-5	x	-2	i	1	-9	i
CCCN(CC(=O)Nc1ccccc1C)C(=O)CC(NC(=O)c1ccccc1)c1ccccc1 (stereo unspecified)	9	-2	1	x	i	5	x	-26

Reprinted from above, two compounds:
SMILES	MT1-MMP act inh	MT1-MMP act inh RFP	UUG fidelity	eIF4H inh	Rce1 inh	CSC inhib	PABP polyA inh	Env fusion inh	others
CCc1nc(N)c(C#N)c(-c2ccc(O)c(OC)c2)c1C	-3	-5	x	-2	i	1	-9	i
CCCN(CC(=O)Nc1ccccc1C)C(=O)CC(NC(=O)c1ccccc1)c1ccccc1 (stereo unspecified)	9	-2	1	x	i	5	x	-26

Continuation.
SMILES	MT1-MMP act inh	MT1-MMP act inh RFP	UUG fidelity	eIF4H inh	Rce1 inh	CSC inhib	PABP polyA inh	Env fusion inh	others
CCOC(=O)Cn1ncn(-c2ccc(OC(F)(F)F)cc2)c1=O	4	5	x	-7	i	7	-2	-9
C/C(=N\NC(=O)c1c(C)nc2ccccn12)c1ccccc1F	0	1	-12	-4	i	-10	2	3
CCOc1ccc(NCc2nnc(SCc3ccccc3Cl)n2-c2ccccc2)cc1	3	0	-17	-2	i	-5	-7	82*
CCCCn1c(N)c(N(CC(C)C)C(=O)c2oc3ccc(OC)cc3c2C)c(=O)[nH]c1=O	-7	-4	x	x	i	-3	x	-3
CC(C)CN1CC(Br)C(=O)NC1=O (stereo unspecified)	-1	4	-24	x	x	x	x	-6
Cc1ccccc1OCCn1c(=S)[nH]c2ccccc21	3	1	10	0	i	26	0	4
CCOC(=O)C1(CCOc2ccccc2)CCN(Cc2ccc(OCC)c(CO)c2)CC1	0	-15	6	x	i	9	x	17
Cc1cccc(NC(=O)c2sc3nc4c(c(-c5cccs5)c3c2N)CN(C)CC4)c1	-54	8	x	110*	i	-13	68*	x	eIF4H inh retest=87*;PABP polyA inh retest=97*
O=c1nc2cccc3c2=c(/c1=C(\O)c1ccccc1)c1ccccc1c3=O	-14	1	1	107	i	2	70	u	eIF4H inh retest=-10;PABP polyA inh retest=3
Nn1c(SCc2cccc(Oc3ccccc3)c2)nnc1C(F)(F)F	-1	3	0	9	i	-14	1	29
Cn1c(CN2CCCCC2)nc2cc(NS(=O)(=O)c3ccc(F)cc3)ccc21	5	3	x	4	i	8	-14	-2
Cn1ccc2c(-c3ccc(F)nc3)cc3c(c21)C1CCC3O1 (stereo unspecified)	5	4	0	x	x	x	x	-10
O=C(CCNc1ccc(F)cc1)c1cc2ccccc2o1	2	0	x	6	i	-1	-3	2
COc1ccc(CCn2c(-c3ccc(Cl)cc3)n[nH]c2=S)cc1OC	2	-1	x	-2	i	x	-4	2
CC(C)CNC(=O)COC(=O)c1ccc(F)cc1Cl	2	4	x	-4	i	12	5	3

Next part (7 carried over from the part before).
SMILES	MT1-MMP act inh	MT1-MMP act inh RFP	UUG fidelity	eIF4H inh	Rce1 inh	CSC inhib	PABP polyA inh	Env fusion inh	others
O=c1nc2cccc3c2=c(/c1=C(\O)c1ccccc1)c1ccccc1c3=O	-14	1	1	107	i	2	70	u	eIF4H inh retest=-10;PABP polyA inh retest=3
Nn1c(SCc2cccc(Oc3ccccc3)c2)nnc1C(F)(F)F	-1	3	0	9	i	-14	1	29
Cn1c(CN2CCCCC2)nc2cc(NS(=O)(=O)c3ccc(F)cc3)ccc21	5	3	x	4	i	8	-14	-2
Cn1ccc2c(-c3ccc(F)nc3)cc3c(c21)C1CCC3O1 (stereo unspecified)	5	4	0	x	x	x	x	-10
O=C(CCNc1ccc(F)cc1)c1cc2ccccc2o1	2	0	x	6	i	-1	-3	2
COc1ccc(CCn2c(-c3ccc(Cl)cc3)n[nH]c2=S)cc1OC	2	-1	x	-2	i	x	-4	2
CC(C)CNC(=O)COC(=O)c1ccc(F)cc1Cl	2	4	x	-4	i	12	5	3
COc1ccc2c(=O)c3c(=O)n(Cc4ccco4)c(-c4cc(OC)c(OC)c(OC)c4)nc3oc2c1	-1	-1	-2	8	i	-1	-9	-59
O=C(O)c1cccc(S(=O)(=O)Nc2ccc3oc(=O)sc3c2)c1	2	3	0	5	i	6	4	x
Nc1cc(=O)[nH]c(SCC(=O)c2ccc(F)cc2)n1	-2	2	-11	-6	i	2	-4	-117
O=C(Nc1nc(=S)ss1)c1c(F)cccc1F	2	3	-11	0	i	-7	-1	x
O=C(Nc1cc(C(=O)Nc2ccccc2C(=O)O)cc(C(=O)Nc2ccccc2C(=O)O)c1)c1ccccc1	-2	2	-11	15	i	-9	48	-9
CCCN(Cc1ccccc1)C(=S)Nc1ccc(OC(F)F)cc1	5	4	-36	-11	i	-6	2	-20
CCOc1ccc(CC(=O)Nc2ccc(S(=O)(=O)N3CCCC3)cc2)cc1	-4	-5	3	-2	i	7	0	-31
COc1ccc(-c2n[nH]c(=S)n2-c2ccc(C)cc2)cc1OC	4	4	-23	1	i	-8	-6	-25
COCc1[nH]c(=S)c(C#N)cc1C(=O)OC	-6	2	x	5	i	-5	16	8
COC(=O)c1ccc(Oc2cc(C)nc(Cl)n2)cc1	1	1	-10	-7	i	-25	-15	-1
Nc1c(C(=O)CSc2nnc(Nc3ccc(F)cc3)s2)c(=O)[nH]c(=O)n1C1CC1	3	-1	-1	x	x	x	x	11
O=C(NNC(=S)Nc1ccc(Br)cc1)c1ccc(N2CCOCC2)c([N+](=O)[O-])c1	2	-1	-35	18	i	2	-7	x
CCCCn1c(=O)[nH]c(=O)c2c1ncn2Cc1ccco1	-2	-1	x	9	i	1	13	x
COC(=O)c1ccccc1S(=O)(=O)N1CCC(C(=O)OC(C)C(=O)Nc2ccccc2OC)CC1 (stereo unspecified)	4	-1	-19	x	x	-2	x	x
COc1cc(OC)cc(-c2cc(N)n(S(=O)(=O)c3cccc4nsnc34)n2)c1	3	-4	x	-1	i	22	9	6
Oc1ccc(Cl)cc1CNc1ccc(Br)cn1	5	-1	1	6	i	-12	8	-189
CCc1sc(/C=C(/C#N)C(N)=S)cc1[N+](=O)[O-]	-22	8	x	42	x	x	12	6
O=C(COc1ccc(Cl)cc1)Nc1ccccc1C(=O)NCc1cccnc1	-3	-3	-9	-14	i	0	10	13
NS(=O)(=O)c1ccc(CCNC(=O)CC(c2ccccc2)c2ccccc2)cc1	-2	-3	0	-4	i	-17	-10	0
N#Cc1ccccc1NC(=O)CSc1n[nH]c(-c2ccco2)n1	-1	5	-13	8	i	-19	7	-1
O=C(Cn1nnc2ccccc2c1=O)NCC1CCC(C(=O)O)CC1 (stereo unspecified)	0	3	-4	-1	i	-18	-14	-1
O=C(CSc1nnc(NC(=O)c2ccco2)s1)NCc1ccc2c(c1)OCO2	2	3	x	2	i	4	0	-1
COC(=O)CCC(=O)NNC(=O)CCCOc1ccc(Cl)cc1Cl	-4	-2	-4	9	i	-1	1	-37
Cc1ccc(-c2csc3ncnc(N4CCc5ccccc5C4)c23)cc1	-21	-18	-1	3	i	17	10	15
CN(C(=O)c1cccc(NC(=O)Cc2ccc(NC(=O)C3CCCN(C(=O)c4ccccc4)C3)cc2)c1)C1CCCCC1 (stereo unspecified)	1	-8	-6	x	x	x	x	5
COc1ccccc1NS(=O)(=O)c1cccc(C(=O)NN=C2CCCCCC2)c1	-2	2	x	0	i	-12	-3	-9
CC1=C(C(=O)OCC2CCCO2)C(c2cccc(C(F)(F)F)c2)C2=C(CC(c3ccco3)CC2=O)N1 (stereo unspecified)	-13	-12	-4	6	i	0	6	-12
Cc1ccc(S(=O)(=O)NC(=O)c2ccc(Br)o2)cc1	3	1	-7	-9	i	6	4	-1
COc1ccc(C(=O)Nc2ccccc2C(=O)NCCCn2ccnc2)cc1	-1	0	-12&1	-14	i	x	-4	x
CCOC(=O)C1C(=O)NC(C(=O)OCC)(C(=O)OCC)C1CC (stereo unspecified)	-1	0	3	x	x	x	x	-7
COc1ccc(NC(=O)c2ccc(Cl)c(S(=O)(=O)N3CCc4ccccc4C3)c2)cn1	3	-14	15	4	i	11	12	92*
COc1ccc2nc(C)cc(SCC(=O)N/N=C/c3cccc4ccccc34)c2c1	-24	-14	-9	-4	i	u	11	36
Cc1cc(NC(=O)CSc2nnc3c(C)cc4c(C)ccc(C)c4n23)no1	-2	-9	13	-4	i	56	-1	x
COc1ccccc1NC(=O)c1c(C)oc2c1CCCC2	1	-3	x	-2	i	-5	2	x
Cc1sc2nc(CSC(C)C(=O)N(C)CC(=O)Nc3ccccc3C(F)(F)F)[nH]c(=O)c2c1C (stereo unspecified)	-9	-3	x	x	i	-7	x	0
COC(=O)Cc1cc(=O)[nH]c(Nc2nc3ccccc3o2)n1	0	1	-42	7	i	-4	-1	x
